T cruzi repl: blocks replication of Trypanosoma cruzi; T. cruzi beta-gal in NIH3T3, luminescence, 90 h; inhibition, % (concentration not given with the values); actives 1.4% (n = 300,000);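 active = mean inhibition across valid replicates above about 55%, limit read from the data; inconclusive = mean below that limit but half or more replicates reach it; inactive = mean below it, under half of replicates reach it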;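 also: signal also drops with host cell toxicity which is not excluded here; 0% = plate median of DMSO wells and 100% = zero luminescence signal; higher percent means less beta-gal luminescence so fewer parasites; stock transfer was 50 nL into about 50 µL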
Bfl-1 A1 inh: inhibitors of the anti-apoptotic protein A1, read as caspase activation; MEF A1-2A-BIM cells, Caspase-Glo 3/7 luminescence, 3 h; percent of clofoctol response, vehicle zero; caspase activation, % (no concentration beside the values); actives 0.066% (n = 330,000);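 active = over half of replicate activation scores above 10%, or exactly half above 10 with the replicate mean above 10; inconclusive = replicate mean below 10 yet half the replicates above 10; inactive = over half of replicates below 10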;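 also: wells of about 30 µL received 50 nL stock; many hits fall short of the cut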
FGF22 binding: shifts melting point of recombinant human FGF22 | Q9HCT0 | recombinant FGF22 thermal shift, SYPRO orange fluorescence; percent of sucrose octasulfate shift, DMSO zero | calls only at 9.99 µM | actives 1.5% (n = 340,000);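 active = melting point raised past a set limit in the mean and every replicate; inconclusive = no clear call; three in four hits are not shown here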
Target sequence (Q9HCT0 whole entry, looked up): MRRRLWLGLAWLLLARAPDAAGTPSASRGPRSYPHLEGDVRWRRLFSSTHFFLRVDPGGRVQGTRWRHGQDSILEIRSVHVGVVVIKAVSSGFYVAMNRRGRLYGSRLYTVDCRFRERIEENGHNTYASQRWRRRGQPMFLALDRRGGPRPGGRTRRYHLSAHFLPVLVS
Beta cell apopt: beta cell apoptosis inhibition; INS-1E cytokine-induced death, ATP luminescence, 48 h; percent of positive-control rescue, neutral wells zero; protection from apoptosis, % (test concentration not listed); actives 0.8% (n = 300,000); AID 435005;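 active = all replicates at 75% or more, or half of them and the mean; inconclusive = half reach 75% but not the mean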;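 also: 0% = cytokine-treated negative control wells and 100% = positive control rescue; higher means more ATP so stronger rescue from cytokine killing; wells of about 40 µL received 100 nL stock; the first replicate is given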
Ecoli rRNA inh: inhibitors of bacterial rRNA selective over humanized ribosomes | E. coli WT GFP vs humanized-ribosome RFP mutants, fluorescence, 24 h; stronger effect = lower value; DMSO median 0, no signal -100 | GFP signal change (wild-type ribosome), % (test concentration not listed) | actives 1.6% (n = 350,000) | AID 720706;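 active = significant combined selectivity score with lowered wild-type GFP, culture density cut under 30%, mutant RFP and density less affected; inactive = any of these conditions unmet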; also: one replicate is shown; some compounds called inactive have numbers as strong as hits
E coli growth: E. coli growth inhibition. Escherichia coli growth, OD600, 23 h; stronger effect = lower value. OD600 absorbance (no concentration beside the values). actives 0.21% (n = 330,000). AID 1053175;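 active = OD600 absorbance below the run mean of sample wells minus 3.6 SD, in any replicate, cut at about 0.56 in these data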;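 also: stock transfer was 300 nL into about 60 µL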
UCH37 DUB inh: human UCH37 deubiquitinating enzyme inhibition. Q9Y5K5. purified proteasome/UCH37, Ub-AMC cleavage fluorescence. inhibition, % (test concentration not listed). actives 0.33% (n = 330,000);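 active = mean of two replicates above 20%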;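 also: 0% = compound-free wells with enzyme and 100% = wells lacking proteasome; stock transfer was 100 nL into about 20 µL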
Target sequence (Q9Y5K5 whole entry, looked up): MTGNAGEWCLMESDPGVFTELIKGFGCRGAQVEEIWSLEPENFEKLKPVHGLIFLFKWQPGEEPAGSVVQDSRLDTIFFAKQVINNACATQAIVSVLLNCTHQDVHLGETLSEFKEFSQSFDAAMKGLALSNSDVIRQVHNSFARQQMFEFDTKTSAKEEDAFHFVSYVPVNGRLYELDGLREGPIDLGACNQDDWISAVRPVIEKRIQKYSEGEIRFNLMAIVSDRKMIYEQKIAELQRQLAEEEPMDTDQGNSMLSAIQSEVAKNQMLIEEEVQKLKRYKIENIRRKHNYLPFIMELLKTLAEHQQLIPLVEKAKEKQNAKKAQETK
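Material: human UCH37 enzyme supplied as purified proteasome complex. Measure: % inhibition of Ub-AMC cleavage fluorescence. Medium: pH 7.4 Tris-HCl (50 mM) with ovalbumin, ATP-MgCl2, DTT. Times: 30 min preincubation with enzyme, 25 min cleavage at room temperature. Detection: AMC fluorescence intensity at 355/460 nm.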
AF4-AF9 inh: MLL-AF4/AF9 protein interaction inhibition | AlphaScreen, biotin-AF4 peptide binding to FLAG-AF9 | inhibition, % at 10 µM | actives 0.47% (n = 350,000) | AID 651704;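 active = every replicate reaching a set inhibition limit, whatever the replicate mean, cut at about 25% in these data; inconclusive = mean inhibition reaches that limit but some replicates miss it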;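 also: 0% = plate neutral control median and 100% = total signal loss; the record names both 10 and 1 µM as test concentration; the first replicate is given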
Target sequence (P42568 whole entry, looked up): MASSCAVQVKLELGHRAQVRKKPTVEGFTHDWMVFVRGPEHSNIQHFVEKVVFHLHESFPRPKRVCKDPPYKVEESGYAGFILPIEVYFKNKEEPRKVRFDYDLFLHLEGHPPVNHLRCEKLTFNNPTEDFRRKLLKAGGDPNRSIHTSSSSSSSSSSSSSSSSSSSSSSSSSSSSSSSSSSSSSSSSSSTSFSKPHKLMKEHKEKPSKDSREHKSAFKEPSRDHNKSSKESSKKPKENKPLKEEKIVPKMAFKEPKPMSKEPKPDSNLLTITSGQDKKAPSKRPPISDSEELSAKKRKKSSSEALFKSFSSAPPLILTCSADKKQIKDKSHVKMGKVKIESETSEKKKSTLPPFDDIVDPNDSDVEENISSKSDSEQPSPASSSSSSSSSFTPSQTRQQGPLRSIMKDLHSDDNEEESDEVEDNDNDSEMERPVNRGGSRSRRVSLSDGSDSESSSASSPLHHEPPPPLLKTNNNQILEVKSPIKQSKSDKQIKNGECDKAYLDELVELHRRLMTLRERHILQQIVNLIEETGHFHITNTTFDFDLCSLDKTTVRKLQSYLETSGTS
Ecoli rRNA inh OD600: second read-out of Ecoli rRNA inh, no call of its own (marks repeat the call); OD600 change, %; measured here: OD600 growth;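 optical density of the mix in the first replicate; 0 = DMSO median and -100 = no signal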
Ecoli rRNA inh RFP: second read-out of Ecoli rRNA inh, no call of its own (marks repeat the call); RFP signal change, %; measured here: RFP humanized mutant strains;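 first replicate; 0 = DMSO median and -100 = no signal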
Active calls of the source: *; i = inactive; ? = inconclusive; · = no result given.

entry	smiles	T cruzi repl	Bfl-1 A1 inh	FGF22 binding	Beta cell apopt	Ecoli rRNA inh	Ecoli rRNA inh OD600	Ecoli rRNA inh RFP	E coli growth	UCH37 DUB inh	AF4-AF9 inh
1	O=C(CSc1nc2ccccc2c(=O)n1Cc1ccco1)c1ccc(F)cc1	8	0.3	·	5	·	·	·	0.68	4.3	·
2	C=CCn1c(CSc2nc3ccccc3s2)n[nH]c1=S	-14	0.7	·	-3	·	·	·	0.8	0.7	·
3	CCOC(=O)c1cc(NC(=O)c2ccccc2)c(=O)n2c1oc1ccccc12	9	0.4	i	11	11	18	-0.4	0.73	-331	-2.8
4	COC(=O)c1cc(CSc2nc3ccc(C)cc3[nH]2)oc1C	-6	0.7	·	-10	·	·	·	0.77	-0.5	·
5	Cc1nn(Cc2c(F)c(F)c(F)c(F)c2F)c(C)c1NC(=O)c1ccc(COc2ccc(F)cc2)o1	·	0.1	·	11	·	·	·	0.74	0.8	·
6	COc1ccccc1N1CCN(C(=O)c2ccc(Cn3c(=S)[nH]c4cc5c(cc4c3=O)OCO5)cc2)CC1	28	-1.5	i	5	7	-10	-2.5	0.7	5.5	3.3
7	C[C@]12CC[C@H](O)CC1=CCC1C2CC[C@@]2(C)C1CC[C@@H]2NC(=O)[C@@H](N)CO (some centres undefined)	·	·	i	·	-15	-49	-5.6	0.67	3.0	-6.4
8	O=C(Nc1ccc(S(=O)(=O)Nc2ncccn2)cc1)c1ccccc1NS(=O)(=O)c1ccc(F)cc1	-3	0.5	i	2	-4	10	0.3	0.71	-25	1.0
9	COc1cccc(NC(=O)Nc2cccnc2)c1	-5	-1.9	i	1	3	-4	-1.3	0.68	4.4	0.3
10	N#Cc1ccsc1NC(=O)CSc1nnc(-c2ccccc2)o1	2	?	·	·	·	·	·	0.74	-1.6	·
11	CCOc1ccc2ncc(S(=O)(=O)c3ccccc3)c(N3CCC4(CC3)OCCO4)c2c1	23	0.3	i	-11	-19	-22	2.0	0.7	-0.9	14
12	COc1cc2ccccc2cc1C(=O)Nc1nc(C)c(C(C)=O)s1	-3	1.0	·	1	·	·	·	0.71	2.8	·
13	CC(C)Cc1nc2oc3c(=O)[nH]cnc3c2c2c1CCCC2	-7	-0.6	·	10	·	·	·	0.69	0.5	·
14	CN(C(=O)c1c[nH]c(=O)cc1C(F)(F)F)c1ccc(Cl)cc1	1	0.5	i	-2	1	16	0.6	0.64	4.7	-5.5
15	CC(=O)N1c2ccc(S(=O)(=O)NCC3CCC(C(=O)NCc4ccccc4)CC3)cc2CC1C (centres undefined)	15	1.2	i	6	-6	-7	0.4	0.7	5.4	0.9
16	COc1ccc(-c2cc(C(F)(F)F)nc(S(C)(=O)=O)n2)cc1	-18	0.2	·	-31	·	·	·	0.68	-16	·
17	Cc1ccc2nc(-c3ccc(NC(=S)NCC(C)(C)CN(C)C)cc3)sc2c1	·	·	i	·	-36*	18*	6.2*	0.73	-45	3.8
18	Oc1oc(-c2ccc(Br)cc2)nc1C=Nc1ccc(Br)cn1	-2	0.6	i	-8	8	7	5.3	0.67	3.0	-0.6
19	CCN(CC(=O)NCc1cccs1)CC(=O)Nc1c(Cl)ccc(C)c1Cl	·	-0.6	i	-1	-1	2	-0.6	0.68	0.7	-0.9
20	CCN(C(=O)COC(=O)c1c(NC(C)=O)sc(C)c1C)c1c(N)n(Cc2ccccc2)c(=O)[nH]c1=O	·	·	i	·	8	18	13	0.72	-1.6	-4.4
21	O=C(Nc1ncccc1O)c1ccc(S(=O)(=O)N2CCCC2)cc1	1	-0.4	i	0	-2	6	-3.4	0.68	3.2	-4.0
22	CC(=O)N1C(=O)c2cccc3cccc(c23)C(=O)N1C(C)=O	5	1.7	·	0	·	·	·	0.77	-25	·
23	Cc1cc(C(=O)COC(=O)CNC(=O)c2ccccc2)c(C)n1CC1CCCO1 (centres undefined)	-6	1.5	i	-6	-20*	-15*	1.7*	0.68	-0.7	1.3
24	COc1ccc(O)c(CNc2ccccc2F)c1	-4	-1.7	i	3	3	7	-0.4	0.63	2.8	4.3
25	CN(C(=O)COC(=O)c1cc(NS(=O)(=O)c2cc([N+](=O)[O-])ccc2Cl)ccc1O)C1CCCCC1	13	1.2	·	0	·	·	·	0.71	4.7	·
26	C=C1CCN([C@H](C(=O)NCc2ccc(Cl)c(Cl)c2)C(C)C)S(=O)(=O)c2ccccc21	-7	0.9	i	1	5	-4	-0.1	·	0.4	-37
27	CCCCNC(=O)CSc1nnc(Cc2ccc(Cl)c(Cl)c2)c(=O)[nH]1	-7	-1.2	i	-2	-5	-8	6.9	·	·	-2.7
28	CCOc1cc(/C=C2/C(=N)N3OC(C)=CC3=NC2=O)ccc1OCCOc1ccccc1	-9	0.2	·	·	·	·	·	0.73	-35	·
29	O=C(OC(C(=O)NCc1ccc2c(c1)OCO2)c1ccncc1)c1ccc(Cl)nc1 (centres undefined)	-2	1.0	i	-2	7	4	1.8	0.71	3.5	-3.4
30	CCN1CCN(C(=O)c2ccc(OCC(=O)Nc3ccc(F)cc3)c(OC)c2)CC1	16	-0.3	i	-6	-3	2	0.0	0.66	-1.6	-1.6

Numbers 29 to 30 of the list above:
entry	smiles	T cruzi repl	Bfl-1 A1 inh	FGF22 binding	Beta cell apopt	Ecoli rRNA inh	Ecoli rRNA inh OD600	Ecoli rRNA inh RFP	E coli growth	UCH37 DUB inh	AF4-AF9 inh
29	O=C(OC(C(=O)NCc1ccc2c(c1)OCO2)c1ccncc1)c1ccc(Cl)nc1 (centres undefined)	-2	1.0	i	-2	7	4	1.8	0.71	3.5	-3.4
30	CCN1CCN(C(=O)c2ccc(OCC(=O)Nc3ccc(F)cc3)c(OC)c2)CC1	16	-0.3	i	-6	-3	2	0.0	0.66	-1.6	-1.6

More structures:
entry	smiles	T cruzi repl	Bfl-1 A1 inh	FGF22 binding	Beta cell apopt	Ecoli rRNA inh	Ecoli rRNA inh OD600	Ecoli rRNA inh RFP	E coli growth	UCH37 DUB inh	AF4-AF9 inh
31	NC(=O)c1oc2ccccc2c1NC(=O)c1ccco1	·	0.2	i	-6	-10	-9	3.1	0.67	2.5	-7.6
32	Cc1cc(C)c(C#N)c(SCc2nnc(-c3ccccc3[N+](=O)[O-])o2)n1	69*	0.9	i	4	9	8	-0.1	0.68	2.7	8.7
33	CC(NC(=O)c1ccco1)c1nc(-c2ccccc2)no1 (centres undefined)	-10	0.3	i	-7	-4	-9	0.7	0.69	4.4	-0.8
34	O=C(Nc1ccccc1Cl)c1ccccc1S(=O)(=O)c1ccccc1[N+](=O)[O-]	4	-0.9	·	-2	·	·	·	0.7	4.3	·
35	CC1(C)CC(=O)CC(C)(C)N1OC(=O)c1ccccn1	3	-0.4	·	-4	·	·	·	0.74	-5.8	·
36	COc1cc(C(=O)Oc2ccccc2/C=N/NC(=O)c2ccc(Cl)cc2)cc(OC)c1OC	67*	-1.7	i	·	1	18	-2.1	·	·	0.9
37	Cc1ccc(C(=O)NC2CCN(CC(=O)NC3CCC(C)CC3)CC2)cc1 (centres undefined)	-2	-2.2	i	·	2	-4	-3.3	0.69	-0.5	1.7
38	O=C1NC(=Nc2cccc([N+](=O)[O-])c2)SC1(CO)CO	-6	-0.3	i	5	-1	-10	11	0.68	4.4	0.1
39	COc1cccc(-c2nc(CS(=O)(=O)CC(=O)NCCC(C)C)c(C)o2)c1	9	-0.3	i	0	-1	0	2.3	0.71	1.5	-0.7
40	Cc1ccc(Cc2cnc(NC(=O)c3cccs3)s2)cc1	-9	-0.6	·	5	·	·	·	0.75	2.1	·
41	COc1ccc(S(=O)(=O)N2CCc3ccccc32)cc1C(=O)O	-15	-1.0	i	·	0	2	-2.9	0.69	3.8	-34
42	COc1cc(C)nc(N(C)C(C)=O)n1	-28	0.0	·	-6	·	·	·	0.66	5.9	·
43	COCCn1c(SCc2ccc(OC)c(F)c2)nc2ccccc2c1=O	75*	0.4	i	6	-18	-12	9.8	0.65	3.0	-2.9
44	CCC1(C)NC(=O)N(CC(=O)c2cc(C)n(C3CC3)c2C)C1=O (centres undefined)	·	·	i	·	12	5	2.6	0.66	-0.5	0.3
45	Cc1ccc(S(=O)(=O)N2CCN(C(=O)CC3CCCC3)CC2)cc1	13	-0.1	·	-4	·	·	·	0.67	4.2	·
46	CCOC(=O)C1=C(c2ccccc2)N(C)C(=O)NC1c1ccc(OC(F)F)c(OC)c1 (centres undefined)	10	0.5	·	-7	·	·	·	0.77	0.3	·
47	CCc1ccc2nc(N(CCCN(C)C)C(=O)c3ccc(S(=O)(=O)N4CCCc5ccccc54)cc3)sc2c1	61*	2.7	i	20	-59	-77	-18	·	·	3.9
48	C=CCc1c(C)nc2c(OC)cccc2c1Cl	·	0.8	i	2	-21	-30	-2.8	0.71	3.2	-1.3
49	CC1CCC/C(=C\Nc2ccc(O)cc2)C1=O (centres undefined)	7	-1.0	·	·	·	·	·	0.72	15	·
50	CCN(CC1COc2ccccc2O1)C(=O)CN1C(=O)NC(C)(c2ccccc2)C1=O (centres undefined)	·	-0.6	i	6	0	-9	1.8	0.72	2.8	1.6
51	CC(Oc1ccc(F)cc1)C(=O)Nc1cc(S(=O)(=O)N2CCCCC2)ccc1N1CCOCC1 (centres undefined)	23	0.7	i	4	1	5	3.6	0.64	0.7	-0.2
52	COc1ccc(/C=N/OCC(=O)Nc2ccc3c(c2)OCO3)c(OC)c1	8	-0.1	i	1	-27	-27	-1.7	·	·	0.7
53	Cc1cc(C(=O)COC(=O)Cc2ccc(Br)cc2)c(C)n1C	·	-0.2	i	-6	-7	-29	13	0.63	4.2	5.3
54	C/C=C/C(=O)N1CC2(CC(c3cccc(NC(=O)CC)c3)=NO2)C[C@H]1C(N)=O (some centres undefined)	-6	-1.3	i	1	9	-4	4.1	·	5.6	·
55	NC(=O)c1cc(C(N)=O)nc(Cl)n1	-12	0.0	i	-17	12	14	4.1	0.65	1.8	-1.0
56	CCCN(CCC)CCCNC(=O)c1cc2c(-c3ccc(OC)c(OC)c3)nn(C)c2s1	38	-0.4	i	-1	-3	6	-2.3	0.62	-7.1	4.2
57	CCOc1ccc(NC(=O)CN(c2ccc(OCC)cc2)S(=O)(=O)c2c(C)[nH]c(=O)[nH]c2=O)cc1	-6	0.7	i	-4	-5	6	2.1	0.69	2.9	0.6
58	CS(=O)(=O)N1CCN(c2ccc(NC(=O)CSc3ccc(Cl)cc3)cc2)CC1	17	1.2	·	2	9	14	-2.7	0.69	4.7	·
59	CCN(C(=O)CSc1nc2cc(Cl)ccc2c(=O)n1CC(C)C)C1CCS(=O)(=O)C1 (centres undefined)	23	-1.6	i	·	-1	-1	-1.1	0.71	0.5	-13
60	CCCCC1=CC2=CC(=O)C(C)(OC(=O)C3CCCC3)C(=O)C2=CO1 (centres undefined)	1	0.3	i	2	·	·	·	·	0.2	14
61	COc1ccccc1Cn1c(C(C)C)nc2ccccc21	3	-0.5	i	-15	-41	-18	-9.8	0.61	4.0	1.0

Assay outcomes as filed in PubChem BioAssay.

This is a subset (hit frequency here may not be typical).
